GLA inh pH 4.5 = inhibitors of human alpha-galactosidase A at pH 4.5; 230,000 tested, under 10 active; P06280; purified enzyme, 4-MU-alpha-Gal fluorescence, pH 4.5; activity change, negative = inhibition, % at 105 µM; inconclusive = small, poorly fitted or top-dose-only inhibition, or a rising curve; inactive = flat fitted curve, though single readings scatter; no compound was filed as active;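 further: 0% = full activity with enzyme and -100% = basal without enzyme; dose as in the result columns while the protocol names 77 µM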
Target sequence (P06280 whole entry, looked up): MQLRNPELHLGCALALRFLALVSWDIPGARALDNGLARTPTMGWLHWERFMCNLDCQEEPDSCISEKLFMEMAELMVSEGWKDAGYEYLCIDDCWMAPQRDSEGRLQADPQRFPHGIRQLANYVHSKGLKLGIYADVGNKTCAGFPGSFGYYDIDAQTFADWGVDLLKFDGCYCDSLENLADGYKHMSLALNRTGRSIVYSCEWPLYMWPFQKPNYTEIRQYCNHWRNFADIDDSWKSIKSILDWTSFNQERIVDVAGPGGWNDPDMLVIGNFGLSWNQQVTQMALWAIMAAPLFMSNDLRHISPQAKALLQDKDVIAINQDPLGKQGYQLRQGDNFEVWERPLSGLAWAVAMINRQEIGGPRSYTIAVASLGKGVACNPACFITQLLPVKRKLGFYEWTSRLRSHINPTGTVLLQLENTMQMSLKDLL
Rango release inh = prevents RanGTP from dissociating the Rango-importin beta complex; Potency, µM (titrated, usually from 46.1 µM), without a hit: at the top dose activity change, negative = inhibition; 0.071% of 340,000 active; Biochemical FRET Rango-importin beta, RanGTP-induced dissociation; active means falling FRET ratio curve, often poorly fitted, with flat reads before Ran was added; inconclusive means other falling curves, or compound fluorescence or quenching; inactive means flat or rising ratio curve;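 further: potency means the concentration at half of the fitted maximal effect; % of control where 0% means no effect; nearly all actives have a fitted effect of over 45% in size; -100% = wells without RanGTP and RCC1; the record marks most hits as doubtful in a second field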
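Rango/importin beta premix (0.1/0.25 uM final), PBS + 1 mM DTT + 0.02% Tween-20 + 0.1% BSA; cpd 5 min RT; FRET pre-read; + RanGTP-RCC1 (0.6 uM Ran, 2 mM GTP, 0.2 uM RCC1); 45 min RT; FRET post-read, ex 430, em 486/530 nm.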
Rango-impB inh = prevents formation of the Rango-importin beta complex; Rango CFP/YFP FRET sensor + importin beta, 45 min; Potency, µM (doses to about 92.2 µM), for inactives: at the top dose inhibition of complex formation; 0.031% of 340,000 active; Q14974; active = rising FRET ratio curve, often small or poorly fitted; inconclusive = mostly compound fluorescence or quenching in the first reads; inactive = flat curves in all reads;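 further: potency means the concentration at half of the fitted maximal effect; 0% = DMSO wells and 100% = buffer wells lacking importin beta; nearly all actives have a fitted effect of over 15% in size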
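FRET biosensor Rango (snurportin 1 IBB between N-terminal EYFP and C-terminal Cerulean), 50 nM in PBS/1 mM DTT/0.02% Tween-20/0.1% BSA, preincubated 5 min RT with compound; 0.125 microM importin beta added, 45 min RT, CFP/YFP FRET ratio read.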
miR-21 reporter = raises the signal of a miR-21 reporter; HeLa miR-21 FLuc reporter, luciferase, 48 h; Potency, µM (doses to about 38.3 µM), for inactives: at the top dose reporter change, positive = more light; 340,000 tested, under 10 active; AID 2288; active = well fitted rising curve with a large enough effect; inconclusive = small, poorly fitted or top-dose-only effect; inactive = no such curve, though single readings can be large or run the other way;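 further: % of control where 0% means no effect; miR-21 action dims this reporter so a rising signal means less miR-21 action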
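Compounds were titrated across several concentrations (up to approximately 40 uM) and incubated 48 hours with HeLa miR-21-FLuc reporter cells (miR-21 target sequence downstream of FLuc, endogenous miR-21). Readout was firefly luciferase luminescence after lytic detection reagent.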
* = called active by the depositor; ? = inconclusive; nt = no result given. Only part of the results is shown (hit frequency here may not be typical).

Screens in order: Rango release inh | Rango-impB inh | miR-21 reporter | GLA inh pH 4.5
> c1ccc2c(c1)nnn2Cc1nnc2sc(-c3ccc4c(c3)OCCO4)nn12
→ 4% | 0.5% | -19% | -2
> C/C(=N\Nc1ccc(C)c(Cl)c1)c1cccnc1
→ 1% | -0.1% | -63% | nt
> O=C(CN1CCCCCC1)Nc1ccc(Cl)cn1
→ 11% | -3.3% | -16% | nt
> CC(C)(C)OC(=O)C1C(=O)CC(C)(O)C(C(=O)OC(C)(C)C)C1c1ccco1 (centres undefined)
→ 15% | 5.4% | -1% | -8
> CCOc1ccc(-c2nc(=S)[nH][nH]2)cc1
→ -7% | -2.1% | -33% | 3
> C=CCN(CC=C)c1cnn(-c2nc3ccccc3[nH]2)c(=O)c1Cl
→ 10% | 0.0% | -25% | 3
> CC(NC(=O)NCC1CCCO1)(C(F)(F)F)C(F)(F)F (centres undefined)
→ 3% | 0.0% | -4% | 6
> O=C(CN1C(=O)NC2(CCOc3ccccc32)C1=O)NCCc1ccccc1 (centres undefined)
→ -6% | 1.7% | nt | nt
> Cc1cc(NC(=O)CSc2nnc(C(F)(F)F)n2C)no1
→ 6% | -0.9% | nt | nt
> CS(=O)(=O)N1CCN(c2ccc([N+](=O)[O-])c(NCCN3CCOCC3)c2)CC1
→ -15% | -6.1% | -12% | -2
> CCOc1ccc(OCCC(=O)N(CCOC)c2c(N)n(Cc3ccccc3)c(=O)[nH]c2=O)cc1
→ 1% | -0.1% | nt | nt
> Cc1cc(NC(=O)COC(=O)Cn2[nH]c(=O)c3ccccc3c2=O)c([N+](=O)[O-])cc1C
→ 3% | -3.5% | nt | nt
> Cc1ccc(CNC(=O)COC(=O)C2CC2)cc1
→ -4% | -1.3% | nt | nt
> O=C1NC(=S)N/C1=C/c1cccc([N+](=O)[O-])c1O
→ 0% | 8.8% | 0% | -26
> CC(=O)Nc1ccccc1NC(=O)c1ccc(C)c(C)c1
→ 4% | -2.8% | -5% | -17
> Cc1c(CCOC(=O)c2ccc(Cl)cc2Cl)sc[n+]1CC(=O)c1ccccc1
→ 0% | 0.2% | nt | nt
> Cc1coc2cc3oc(=O)c(CCC(=O)NCCCn4ccnc4)c(C)c3cc12
→ 2% | 4.2% | -10% | nt
> C=CCc1ccc(OCC(O)CN2CCN(c3ccccc3)CC2)c(OC)c1 (centres undefined)
→ 4% | -1.1% | 1% | nt
> CC(C)[C@H](N)c1nnc(SCC(=O)c2ccc(Cl)cc2)o1
→ 24% | 7.1% | 5% | 6
> CN(c1cccc(NC(=O)CN(c2ccc(F)cc2)S(C)(=O)=O)c1)S(C)(=O)=O
→ 13% | -4.9% | 0% | 2
> CC(C)c1ccc(C2C(C#N)=C(N)N3C(=C2C#N)Sc2ccccc23)cc1 (centres undefined)
→ nt | nt | -14% | 12
> Cc1nnsc1NC(=O)OCC(C)C
→ 44% | -0.4% | -3% | 0
> Cc1ccc(-n2c(-c3cccnc3)n[nH]c2=S)c(C)c1
→ 3% | -0.3% | -1% | 1
> CCOCCc1nnc(NC(=O)C2CC(=O)N(CCc3ccc(F)cc3)C2)s1 (centres undefined)
→ 2% | -1.6% | 1% | nt
> CCNC(=S)Nc1ccc(C)c(S(=O)(=O)Nc2ccccc2OC)c1
→ 0% | -2.0% | 12% | -6
> Cc1ccc2nc(N3CCN(C(=O)c4ccco4)CC3)sc2c1
→ 19% | -1.0% | nt | nt
> O=C(COC(=O)c1ccc(Cl)c(S(=O)(=O)N2CCCCC2)c1)NCc1ccco1
→ -2% | -1.4% | -2% | -1
> Nc1nc(SC2c3cccc4cccc(c34)C2NS(=O)(=O)c2ccccc2)n[nH]1 (centres undefined)
→ ? | 0.2% | -1% | -5
> CCCCSc1nc2sc3c(c2c(=O)n1-c1ccc(OC)cc1)CCN(C)C3
→ ? | ? | 8% | nt
> CCCS(=O)(=O)c1nc(S(=O)(=O)c2ccc(C)cc2)c(N2CCc3ccccc3C2)s1
→ 7% | ? | 9% | 2
> COc1ccc(-n2nnc3c(SCC(=O)Nc4ccccc4F)ncnc32)cc1
→ 1% | 0.0% | -8% | 5
> COc1cccc(N2CC(NC(=O)c3ccc4ccccc4c3)CC2=O)c1 (centres undefined)
→ -11% | -0.4% | nt | nt
> N#Cc1c(N)c(C(=O)c2ccc(Br)cc2)n2c1CCC2
→ ? | -0.3% | -4% | -1
> Cc1ccc2nc(S(=O)(=O)O)[nH]c2c1
→ -8% | -2.8% | -2% | -14
> COc1ccc(C(C#N)(CC(=O)O)c2cnccn2)cc1OC (centres undefined)
→ 7% | -0.2% | nt | nt
> COc1ccc(CCNC(=O)COC(=O)CCC(=O)c2cccs2)cc1OC
→ -4% | 1.7% | nt | nt
> CCc1nn(CC(=O)NCCCN2CCOCC2)c(=O)c2cc3c(OC)cccc3n12
→ 0% | -0.1% | nt | nt
> COc1cccc(CN2CC(O)=C(c3nc(-c4ccc(Cl)cc4)cs3)C2=N)c1
→ -6% | -3.3% | -10% | 9
> CCSc1nnnn1-c1ccccc1
→ -1% | -0.2% | 5% | -6
> Brc1cccc(-c2cnco2)c1
→ 6% | 0.0% | -2% | 2
> O=C(NCCc1ccccc1)c1n[nH]c2ccccc12
→ -12% | -3.6% | -57% | -3
> CCOc1ccc(C(=O)NCCC(=O)N2CCC3(CC2)NCCc2[nH]cnc23)cc1OCC
→ 10% | 0.9% | 0% | nt
> O=C(Nc1ccc2nc(-c3ccco3)c(-c3ccco3)nc2c1)N1CCN(c2ccccn2)CC1
→ ? | ? | 4% | 12
> COc1cccc(CN(C)C(=O)c2ccc(NS(=O)(=O)c3ccc(F)cc3)cc2)c1OC
→ -4% | -1.1% | nt | nt
> CC1(C(=O)c2ccccc2)C2c3c(ccc4ccccc34)OC(=O)C21C(=O)N1CCOCC1 (centres undefined)
→ 1% | -1.2% | -3% | -14
> O=C(CSCc1c(Cl)cccc1Cl)NN1C(=O)c2ccccc2C1=O
→ -18% | -6.6% | -2% | -3
> O=C(O)C(O)c1ccco1 (centres undefined)
→ -2% | 0.4% | -3% | 1
> CCCCNC(=O)c1c[nH]c2ccc(S(=O)(=O)Nc3ccc(OCC)cc3)cc2c1=O
→ -8% | 0.7% | -6% | -17
> COc1ccc(N(C)S(=O)(=O)c2cccc(C(=O)OC(C(=O)Nc3cc(C)cc(C)c3)c3ccccc3)c2)cc1 (centres undefined)
→ -10% | -3.2% | -17% | -8
> COc1ccccc1CNC(=O)c1ccc(CS(=O)Cc2cccc(Cl)c2)o1 (centres undefined)
→ -19% | -0.2% | -10% | nt
> COC(=O)c1sc(NC(=O)c2ccc(OC)cc2OC)nc1C
→ -11% | -6.7% | nt | nt
> N#CC1=C(N)Oc2cc(Nc3ccccc3)ccc2C1c1ccncc1 (centres undefined)
→ -11% | ? | 3% | 0
> Cc1c(/C=N/NC(N)=O)c2ccccn2c1C(=O)c1ccc(F)cc1
→ -25% | ? | -28% | -10
> CCC(=O)Nc1nnc(SCC(=O)c2ccc3c(c2)Cc2ccccc2-3)s1
→ 0% | 5.5% | -3% | 3
> COC(=O)c1cn(-c2ccccc2)nc1C(=O)OC
→ 13% | -3.2% | -9% | 10
> O=C1NCCn2nc3ccccc3c21
→ 4% | 2.7% | nt | nt
> Cc1ccc(-n2nnnc2SCC(=O)c2cc(C)n(-c3cc(C)on3)c2C)c(C)c1
→ 3% | 0.2% | 1% | -1
> Cc1nnc(NC(=O)CSc2nc3c(c(=O)n(C)c(=O)n3C)n2C(C)C)s1
→ 6% | 6.3% | 0% | 7
> CC[C@]12c3[nH]c4cc(-c5ccco5)ccc4c3CCN1C(=O)[C@@H](CC(=O)NCc1cccc(C(F)(F)F)c1)C[C@@H]2C(=O)N1CCN(C(=O)c2ccco2)CC1
→ -6% | -2.0% | nt | nt
> O=C1c2ccccc2C(=O)N1CCCc1nc2ccccc2c(=O)n1-c1cccnc1
→ 3% | 0.1% | 0% | -2

Additional structures follow.
Screens in order: Rango release inh | Rango-impB inh | miR-21 reporter | GLA inh pH 4.5
> CSCCC(NC(=O)c1cc([N+](=O)[O-])cc([N+](=O)[O-])c1)c1nc2ccccc2[nH]1 (centres undefined)
→ 5% | -5.1% | 14% | -15
> CCCCCCN1C2=NCCCN2c2ccccc21
→ -20% | -1.0% | 23% | 1
> CCN1CCCC1CNC(=O)C1CCN(C(=O)c2cc3sccc3n2Cc2ccc(F)cc2)CC1 (centres undefined)
→ 1% | -3.5% | -13% | -12
> COc1ccc(NC(=O)CC(c2ccco2)C(C)C)cc1 (centres undefined)
→ 0% | -1.7% | -13% | nt
> CCn1cnc2c1c(=O)n(CC(=O)O)c(=O)n2Cc1ccccc1
→ 23% | -1.7% | 1% | nt
> CC(=O)Nc1ccc(NC(=O)CSc2cn(CC(=O)N3CCOCC3)c3ccccc23)cc1
→ 17% | 1.2% | 0% | nt
> COCC(C)N=C1NN=C(c2ccc(NC(C)=O)cc2)CS1 (centres undefined)
→ 6% | -1.7% | -5% | 6
> CC1CC(C)CN(C(=O)CCC(=O)Nc2nnc(C3CCCCC3)s2)C1 (centres undefined)
→ 5% | 2.8% | -2% | nt
> O=C(NCc1ccccc1)c1cccc(COc2cccc(Cl)c2)c1
→ -7% | 6.7% | -18% | -24
> Cc1ccc(Nc2cc(C)nc(-c3ccccc3O)n2)cc1
→ -7% | -3.3% | -29% | 1
> O=c1oc2ccccc2cc1-c1csc(Cc2nc(-c3ccc(Br)cc3)cs2)n1
→ 25% | -0.1% | -2% | 5
> CCOCCc1nn2c(=O)cc(CSCC(=O)Nc3cccc(C)c3C)nc2s1
→ 1% | -0.5% | 2% | nt
> Cc1cccc(N(Cc2cc3ccc(C)cc3[nH]c2=O)C(=O)c2ccco2)c1
→ -4% | 1.2% | -1% | 2
> CCOc1ccc(NC(=O)CN(C)C(=O)c2c(C)nn(-c3ccc(F)cc3)c2Cl)cc1OCC
→ 2% | -0.2% | nt | nt
> Cc1cc(C)cc(OCC(=O)N/N=C/c2ccccn2)c1
→ 1% | 0.0% | 6% | 7
> COc1ccc(-c2nnn(CC(=O)Nc3sc4c(c3C#N)CCCC4)n2)cc1
→ 0% | 0.8% | 2% | -3
> Cc1nn(-c2ccc(F)cc2)c(C)c1CN1CCN(CCC(C)C)C(CCO)C1 (centres undefined)
→ 1% | -0.5% | 0% | -6
> COc1ccc(Cl)cc1N(CC(=O)Nc1ccc2c(c1)OCCO2)S(C)(=O)=O
→ 27% | -2.2% | -23% | 7
> Fc1cccc(Nc2nc(N3CCOCC3)nc(N3CCOCC3)n2)c1
→ 2% | -0.2% | 6% | nt
> CC(=O)Nc1cccc(C(=O)OCC(=O)NC(=O)Cc2ccccc2)c1
→ 11% | 2.9% | nt | nt
> Cn1c(=O)cc(OCCCC(=O)Nc2ccc3c(c2)OCCO3)c2ccccc21
→ -20% | -0.5% | -3% | 6
> COc1ccc(C)c2sc(NNC(=O)COc3ccccc3)nc12
→ nt | nt | 0% | 4
> CCC(C(=O)NCCCN1CC(C)CC(C)C1)n1nc(C)c2sc3ccccc3c2c1=O (centres undefined)
→ 24% | 2.1% | 5% | nt
> Cc1ccc(S(=O)(=O)N2CCc3ccccc3CC2)cc1
→ -3% | 2.2% | nt | nt
> COC(=O)C1CCN(C(=O)CN2C(=O)NC(CC(C)C)C2=O)CC1 (centres undefined)
→ 0% | -5.6% | nt | nt
> Cc1ccc(Cl)cc1N1CCN(S(C)(=O)=O)CC1
→ 2% | 4.4% | -1% | -3
> CCN1/C(=C2\OC(=S)N(C)C2=O)Sc2ccccc21
→ ? | ? | -18% | -5
> CC(=O)Nc1ccc(S(=O)(=O)N2CCN(C(=O)c3ncoc3-c3ccccc3F)CC2)cc1
→ -5% | -2.3% | 6% | nt
> O=C(NCc1ccccn1)C1CCN(S(=O)(=O)N2CCCCC2)CC1
→ 3% | 0.8% | -4% | 3
> N#CC1(NC(=O)COC(=O)c2nccnc2N)CCCCC1
→ 1% | ? | nt | nt
> C=CCN(c1ccc(OC)cc1)S(=O)(=O)c1ccc(Cl)c(C(=O)OCC(=O)c2c(N)n(C)c(=O)n(C)c2=O)c1
→ 7% | -0.8% | nt | nt
> CCOC(=O)C1CCCN(C(=O)c2ccc(C)c(NC(=O)C3=C(C)OCCS3)c2)C1 (centres undefined)
→ 19% | -3.8% | -5% | nt
> O=C(O)CNC(=O)c1ccc(N2CCOCC2)cc1[N+](=O)[O-]
→ 0% | -2.4% | -1% | 1
